Beta2AR agonist – agonists of human beta-2 adrenergic receptor inducing internalization; Am2.2-beta2AR cells, FAP receptor internalization, flow cytometry; reference of the scale not given here; response, % (concentration not given with the values); 340,000 compounds, 0.43% hits; AID 504454;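 active = response above a set limit, near 3 SD of response in nonfluorescent compounds, cut at about 42% in these data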;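 note: stock transfer was 100 nL into about 11 µL; a reference agonist was the positive control; negative values mostly stem from fluorescent compounds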
LANA-H2B inh – blocks KSHV LANA binding to histone H2A/H2B | Q9QR71 | cell-free LANA-H2A/H2B peptide, fluorescence polarization | inhibition, % (no concentration beside the values) | 320,000 compounds, 0.6% hits; in the data active = inhibition mostly above about 10%, no sharp cut-off; inactive = mostly below about 6.7%;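 note: stock transfer was 7.5 nL into about 10 µL; 0% = median of vehicle wells and 100% = median of positive control wells; one replicate is shown; the record names a cut of 25% in any replicate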
HNF4A DNA FP – change in binding of human HNF4 alpha to DNA | 360,000 compounds, 0.3% hits | activity change, % at 10 µM | P41235 | HNF4a-FITC DNA binding, fluorescence polarization, 1 h; in the data active = activity change above about 30%, passing the limit was not always enough;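 note: controls were the assay level and a saturating level of protein; the project sought stronger binding though the title names inhibitors; some compounds called inactive have numbers as strong as hits; positive values seem to mean higher polarization but the record does not say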
Target sequence (P41235 whole entry, looked up): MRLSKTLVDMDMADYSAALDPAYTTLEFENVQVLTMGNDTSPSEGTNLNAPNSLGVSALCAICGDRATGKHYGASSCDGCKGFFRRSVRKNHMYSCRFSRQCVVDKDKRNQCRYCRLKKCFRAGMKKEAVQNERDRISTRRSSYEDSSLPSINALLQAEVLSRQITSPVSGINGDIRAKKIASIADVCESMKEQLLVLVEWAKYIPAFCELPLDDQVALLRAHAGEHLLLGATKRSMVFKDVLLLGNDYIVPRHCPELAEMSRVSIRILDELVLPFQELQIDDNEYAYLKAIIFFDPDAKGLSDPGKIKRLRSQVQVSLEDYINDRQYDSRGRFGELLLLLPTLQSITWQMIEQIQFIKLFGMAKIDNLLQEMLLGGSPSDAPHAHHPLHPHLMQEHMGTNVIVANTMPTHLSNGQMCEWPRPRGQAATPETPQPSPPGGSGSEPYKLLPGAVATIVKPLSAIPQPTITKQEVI
Vif TR-FRET – inhibitors of Vif binding to APOBEC3G peptide, primary screen, biochemical, TR-FRET, GST-Vif 1-94, biotin-A3G peptide, dose response retest (AID 1117319); TR-FRET GST-Vif / biotin-A3G peptide binding; higher % means a stronger effect; test concentration not given here; strong numbers were not always called active; inhibition, %, or IC50 in µM where a hit was titrated; 260,000 compounds, 0.57% hits;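 active = above the screen mean plus three standard deviations and confirmed in dose response; inconclusive = results disagree or hit not tested in dose response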;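 note: Vif residues 1-94 fused to GST binding biotinylated APOBEC3G peptide 110-148; 0% = full assay without inhibitor and 100% = GST in place of GST-Vif; retest series ran down from 100 µM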
ALR inh – blocks human ALR sulfhydryl oxidase activity. purified ALR, DTT oxidation, H2O2 HRP-luminol luminescence. inhibition, % (no concentration beside the values). P55789. AID 485317. 290,000 compounds, 3.8% hits;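 active = mean and each replicate at 75% or more; inconclusive = only one of the two met; inactive = neither met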;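 note: stock transfer was 7.5 nL into about 7.5 µL; 0% = neutral wells and 100% = wells with inactivated enzyme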
Target sequence (P55789 whole entry, looked up): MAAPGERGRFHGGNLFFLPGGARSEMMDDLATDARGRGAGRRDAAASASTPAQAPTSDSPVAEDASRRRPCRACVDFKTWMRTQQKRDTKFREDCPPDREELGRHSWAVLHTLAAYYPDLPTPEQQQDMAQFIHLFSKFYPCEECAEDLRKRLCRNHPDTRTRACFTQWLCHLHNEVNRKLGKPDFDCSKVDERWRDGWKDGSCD
Calb FLC – C. albicans growth modulation with fluconazole. C. albicans CaCi-2 (fluconazole-resistant clinical isolate) + fluconazole, Alamar Blue growth, 48 h. growth inhibition, % (no concentration beside the values). AID 1979. 300,000 compounds, 0.57% hits;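 active = most replicates above 75%; inconclusive = exactly half above 75%; inactive = most below 75%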;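 note: all wells also contain fluconazole at 8 µg/ml as a sub-toxic cotreatment; 0% = median of DMSO wells and 100% = median of geldanamycin control wells; wells of about 8 µL received 7.5 nL stock; the first replicate is given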
RanGTP-Impb inh – inhibitors of RanGTP-importin-beta interaction, primary screen, biochemical, FRET, CFP-Ran, YFP-importin-beta, homogeneous; cell-free CFP-Ran/YFP-importin-beta FRET ratio; inhibition, % (no concentration beside the values); 300,000 compounds, 1.1% hits;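 active = most replicates above 15%; inconclusive = exactly half above 15%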;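 note: 0% = DMSO wells and 100% = Ran loaded with GDP instead of GTP; wells of about 40 µL received 100 nL stock; the first replicate is given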
Numbers without * were called inactive; ? = inconclusive; / = no result given. Compounds as they come. About 6.3% of those tested had a hit in this group.

compound	Beta2AR agonist	LANA-H2B inh	HNF4A DNA FP	Vif TR-FRET	ALR inh	Calb FLC	RanGTP-Impb inh
CCOC(=O)c1c(-c2ccc(OC)c(OC)c2)csc1NC(=O)C1CCCO1 (centres undefined)	9.6	1.3	1.3	5.0%	-3.2	-8.7	-3.8
CN(CC(=O)Nc1ccccc1C(F)(F)F)C(=O)c1ccc2c(=O)n3c(nc2c1)CCC3	-3.5	-4.0	-2.0	/	/	/	/
O=C(Cc1cccc(NC(=O)C2CCN(C(=O)C3CC3)CC2)c1)Nc1cccc(C(=O)N2CCCC2)c1	3.5	2.2	-0.8	/	1.7	/	/
CC(=O)c1ccccc1NC(=O)COC(=O)c1cc[n+]([O-])cc1	0.6	1.6	-0.6	/	2.6	/	/
CC(OC(=O)c1ccc(F)cc1)C(=O)Nc1nc(-c2cccc([N+](=O)[O-])c2)cs1 (centres undefined)	-0.7	-1.2	0.2	/	-3.5	-34.0	2.0
CC(C)N1CCC(N2CCN(Cc3cnc(-c4ccccc4)s3)CC2CCO)CC1 (centres undefined)	-0.5	4.6	3.9	?	-2.3	-3.6	?
c1ccc(CCCNc2ncccn2)cc1	-6.1	-1.0	6.0	-7.2%	-13.4	-4.7	2.2
COc1cc(C(=O)Nc2ccccn2)cc(OC)c1OC	-3.8	-6.1	-1.9	-4.3%	-4.7	0.6	6.7
Cc1[nH]c2ccc(CNS(=O)(=O)c3ccc(S(=O)(=O)N4CCOCC4)cc3)cc2c1C	28.3	-0.3	3.2	6.1%	11.5	1.1	3.6
Cc1noc(C)c1S(=O)(=O)N1CCN(c2ccc(Cl)cc2)CC1	6.4	0.1	1.6	-1.4%	-2.2	-0.6	3.6
COc1ccc(C)cc1Nc1n[n+](C)c(-c2c3ccccc3cc3ccccc23)s1	1.7	5.0	7.7	/	2.0	17.2	-1.1
COc1ccc(CNC(=O)COC(=O)c2ccc(OCC3CCCO3)cc2)cc1 (centres undefined)	-10.0	-13.6	2.5	4.4%	-3.9	/	/
Cc1ccc2c(c1)COc1c3ccc(C(=O)N4CCOCC4)cc3nn1-2	-13.3	5.0	-0.2	21.4%	-2.4	5.2	0.1
C/C(=N\Nc1nc2ccccc2c(=O)n1O)c1ccco1	1.6	-1.1	1.5	13.2%	-11.6	-0.9	6.7
CC1CCCCN1CC(O)COCc1ccc(Cl)cc1 (centres undefined)	5.6	-1.1	1.4	/	9.7	-2.5	3.7
O=C(NCc1ccccc1)/C(=C/c1cccc([N+](=O)[O-])c1)NC(=O)c1ccco1	3.2	1.0	-3.5	/	2.1	0.0	8.1
COc1cccc(CN(CCC(C)C)S(=O)(=O)c2cc(Br)ccc2Br)c1	-2.0	/	1.6	4.7%	/	/	/
Cc1ccc(S(=O)(=O)N(C)Cc2cc3cc(C)ccc3[nH]c2=O)cc1	-8.4	-4.5	-0.7	-13.8%	-32.1	7.5	5.4
C[C@@H](C(=O)NCc1ccccc1)[C@@H]1C[C@@]1(C)[C@@H](NC(=O)OCc1ccccc1)c1ccccc1	6.0	2.4	-4.2	/	-0.4	-7.6	-2.0
O=C(CCCN1C(=O)c2ccccc2C1=O)NCCc1ccc(OC(F)F)cc1	-4.8	7.0	3.2	1.4%	2.8	0.7	-1.2
O=C(c1ccco1)N1CCCC(c2nc3c(nnn3Cc3ccc(F)cc3)c(=O)[nH]2)C1 (centres undefined)	3.1	-5.1	0.9	3.9%	/	-14.5	4.9
COc1ccc(C(C(=O)NC2CCCC2)N(C(=O)c2snc(C(N)=O)c2N)c2cc(C)ccc2OC)cc1OC (centres undefined)	2.5	-1.8	3.0	/	/	1.2	-0.5
Cc1ccccc1NS(=O)(=O)c1cc(C(=O)Nc2cccc(N(C)S(C)(=O)=O)c2)ccc1C	-10.9	-1.4	0.9	-4.0%	-1.1	22.8	2.3
O=C(COCc1ccccc1)N[C@@H](Cc1ccc(O)cc1)C(=O)O	-3.5	1.0	0.8	-2.7%	13.1	-16.3	0.8
O=C(NC1(C(F)(F)F)NC(=O)N(CCc2ccccc2)C1=O)C1CC1 (centres undefined)	-3.5	5.3	1.7	-4.2%	-3.3	0.4	-3.0
COc1ccc(/C=N/NC(=O)c2[nH]c3ccc(Br)cc3c2-c2ccccc2)c(C(=O)O)c1OC	-1.4	-6.2	-0.9	9.4%	/	13.5	?
COc1cc(CC(=O)OCC(=O)NCC(C)C)cc(OC)c1OC	-0.6	3.2	1.2	-0.7%	3.6	-20.1	1.6
O=C(Oc1ccc(F)cc1)N1CCOCC1	-11.2	-4.6	-0.2	-0.6%	-9.1	-7.0	-1.3
Cc1cc(/C=N/N2CCN(C)CC2)c(C)n1-c1ccccc1F	-1.5	-4.2	-0.2	18.2%	23.6	-0.8	-1.1
O=C(O)c1cccc(-n2c(O)c(C=C3N=c4ccccc4=N3)sc2=S)c1	0.2	6.3	3.9	10.3%	98.7*	-5.4	3.2

compound	Beta2AR agonist	LANA-H2B inh	HNF4A DNA FP	Vif TR-FRET	ALR inh	Calb FLC	RanGTP-Impb inh
Cc1cc(C)c(C#N)c(SC(F)F)n1	9.8	0.0	-2.7	4.8%	-17.9	6.6	98.1*
CN(NC(N)=O)c1ncc(C(F)(F)F)cc1Cl	12.1	0.4	-0.1	?	-1.7	-2.0	2.6
Cc1ccc2c(c1)N(CC(=O)NCCCN1CCCC1)C(=O)CO2	0.6	-1.2	-0.5	/	-1.0	-2.9	0.4
Cc1cccc(C)c1NC(=O)COC(=O)c1cccc2c1C(=O)c1ccccc1C2=O	4.2	0.7	1.1	1.9%	/	0.8	0.9
O=C(Nc1ccccc1)N1CCC(c2ccccc2)C1 (centres undefined)	6.5	-12.5	-0.5	14.6%	-3.0	-21.5	5.3
Cc1cc(=O)oc2cc(OC(C)C(=O)NCC3CCC(C(=O)O)CC3)c(Cl)cc12 (centres undefined)	2.2	2.7	-1.9	/	/	-3.7	1.9
O=C(O)C1Cc2ccccc2CN1C(=O)c1ccccc1 (centres undefined)	4.8	0.8	-3.5	-3.1%	-6.1	8.9	0.9
O=C(c1cccc(C(F)(F)F)c1)N1CCN(C2CCCCC2)CC1	5.8	-4.1	-1.3	-1.1%	0.5	-13.6	?
CCOC(=O)C1=CC[C@H]2c3c(c4ccccc4n3C)C[C@H]1N2C	-0.1	1.9	-5.6	/	15.6	/	/
CN(C)C(=O)c1cc2cc(Br)ccc2s1	-3.8	-0.2	1.9	-9.4%	-2.6	-10.8	4.0
COc1ccc(CNC(=O)C(C)NCc2ccc(S(N)(=O)=O)cc2)cc1 (centres undefined)	10.0	2.7	-1.0	/	-5.5	-10.6	2.3
COc1cc(C(=O)NC(C)C2CC3CCC2C3)cc(OC)c1OC (centres undefined)	7.5	-2.8	1.8	-6.3%	-3.6	-3.9	-2.3
Cc1ccc(Nc2nnc(SCC(=O)Nc3ccc(S(=O)(=O)N4CCOCC4)cc3)s2)cc1	3.6	2.2	-0.6	21.2%	/	21.6	2.3
CC(C)CN(C(=O)CSc1nnc2ccccn12)C1CCS(=O)(=O)C1 (centres undefined)	3.0	-3.0	-1.6	-2.2%	-0.5	/	/
CC(=O)NCCNC(=O)c1cc(-c2cccc3ccccc23)nc2ccccc12	11.6	-1.8	-4.9	/	-1.4	5.7	-0.1
O=C(CSc1nnc(-c2ccccc2O)o1)Oc1ccc(OCc2ccccc2)cc1	1.1	1.6	-1.9	-8.9%	-8.7	10.0	0.5
CCc1nnc(NC(=O)C2(C)COC(c3ccccc3)OC2)s1 (centres undefined)	0.1	0.8	1.6	-14.9%	1.1	-16.9	1.2
CCOc1cc(/C=N/NC(=O)C2CC2)ccc1OC(C)C	-4.8	0.9	-0.3	/	-9.0	-11.9	/
CC(=O)Nc1ccc(C(=O)N/C(=C/c2ccccc2)C(=O)Nc2cccc(C(=O)O)c2)cc1	-1.6	-5.4	1.9	2.0%	0.8	10.2	?
COc1ccc(CNCCCn2cnc(C(=O)Nc3ccc(C)c(C)c3)n2)cc1	-2.9	/	0.0	-0.3%	/	/	/
CN(C)c1ccc(NS(=O)(=O)c2ccc(Cl)cc2)cc1	-1.4	1.8	1.8	12.9%	/	9.6	-0.8
CN(C)[C@@H]1CCC[C@H]1OC(=O)C(c1ccccc1)c1ccccc1	6.7	-1.6	1.7	/	0.3	4.9	-0.5
N/C(=N\OC(=O)c1cccc(Cl)c1)c1ccncc1	-2.7	0.8	0.2	/	/	-12.4	-2.1
CCN(CC)S(=O)(=O)c1ccc2oc(Nc3ccc(OC)cc3)nc2c1	14.3	-0.7	1.5	-9.4%	1.4	-1.3	-1.7
O=C(Nn1cnc2ccccc2c1=O)c1ccc(F)cc1Cl	5.0	3.0	1.2	3.4%	/	1.0	-2.6
O=C(CSc1nnc(-c2ccccc2)n1Cc1ccccc1)NNC(=O)c1ccccc1O	-0.9	-4.6	-4.7	?	24.1	-4.2	-4.3
CCc1ccc(Nc2nnc(SCC(=O)NC(=O)CN3CCCC3=O)s2)cc1	-1.0	-5.2	-4.7	10.2%	10.8	/	/
Cc1ccc(C(NC(=O)N2CCOCC2)C(Cl)Cl)cc1F (centres undefined)	-5.3	-1.2	-1.0	/	1.5	12.0	0.1
N#Cc1ccc(OCCN2C(=O)NC3(CCSC3)C2=O)cc1 (centres undefined)	0.5	-6.1	-3.2	2.1%	/	-10.6	-0.4
CCN(CC)c1ccc(S(=O)(=O)N2CCOCC2)cc1NC(=O)Cn1nc(C)c([N+](=O)[O-])c1C	-0.2	2.1	-1.1	0.3%	/	/	/

Reprinted from the part before: 5 entries, followed by the next part.
compound	Beta2AR agonist	LANA-H2B inh	HNF4A DNA FP	Vif TR-FRET	ALR inh	Calb FLC	RanGTP-Impb inh
O=C(CSc1nnc(-c2ccccc2)n1Cc1ccccc1)NNC(=O)c1ccccc1O	-0.9	-4.6	-4.7	?	24.1	-4.2	-4.3
CCc1ccc(Nc2nnc(SCC(=O)NC(=O)CN3CCCC3=O)s2)cc1	-1.0	-5.2	-4.7	10.2%	10.8	/	/
Cc1ccc(C(NC(=O)N2CCOCC2)C(Cl)Cl)cc1F (centres undefined)	-5.3	-1.2	-1.0	/	1.5	12.0	0.1
N#Cc1ccc(OCCN2C(=O)NC3(CCSC3)C2=O)cc1 (centres undefined)	0.5	-6.1	-3.2	2.1%	/	-10.6	-0.4
CCN(CC)c1ccc(S(=O)(=O)N2CCOCC2)cc1NC(=O)Cn1nc(C)c([N+](=O)[O-])c1C	-0.2	2.1	-1.1	0.3%	/	/	/
Cc1cccc(NC(=O)CCS(=O)(=O)c2ccccc2)c1	-4.5	-0.7	1.6	/	/	-14.2	4.7
Cn1c(NC(=O)c2ccco2)c(-c2ccc(Cl)cc2)c(=O)c2ccccc21	-9.0	-2.7	2.3	2.9%	6.3	-4.0	-3.2
CCOC(=O)c1nn(-c2ccccc2C)c2nc(-c3ccc(Cl)cc3)c(C#N)c(=O)n12	3.1	4.3	2.2	-6.6%	-1.4	1.8	0.4
CC(=O)N1CCN(C(=O)/C(C#N)=C/c2ccc3c(c2)OCO3)CC1	12.4	-5.2	0.9	/	-3.2	4.8	3.2

Results in LANA-H2B inh and Beta2AR agonist, for 2 of the compounds above:
| mol | LANA-H2B inh | Beta2AR agonist |
| --- | --- | --- |
| Cn1c(NC(=O)c2ccco2)c(-c2ccc(Cl)cc2)c(=O)c2ccccc21 | -2.7 | -9.0 |
| Cc1cccc(NC(=O)CCS(=O)(=O)c2ccccc2)c1 | -0.7 | -4.5 |
